# VCAM1 TNFa inh = inhibitors of TNFa-induced VCAM1 expression, primary screen, imaging, HUVEC, TNFa stimulus, immunofluorescence. inhibition, % at 2 µM. hit rate 0.48% among 95,000. HUVEC TNFa-induced VCAM-1 immunofluorescence, high-content imaging;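 active = inhibition above the batch mean plus 3 SD, with images confirmed as a hit by eye, cut at about 37% in these data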;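 also: 0% = TNF-stimulated DMSO wells and 100% = unstimulated control wells; not every result past the cut was called active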
# Smad3 inh = Smad3/FoxH1 peptide binding inhibitors, primary screen, biochemical, TR-FRET. TR-FRET Smad3/Dy647-FoxH1 peptide binding, europium anti-His. inhibition, % at 25 µM. hit rate 0.29% among 88,000. AID 630, 2007;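 active = compounds that reduce the energy-transfer binding signal between the protein and its labelled peptide by more than half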;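 also: 0% = Smad3 plus labelled peptide maximal FRET and 100% = peptide-only background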
# Target sequence (P84022 whole entry, looked up): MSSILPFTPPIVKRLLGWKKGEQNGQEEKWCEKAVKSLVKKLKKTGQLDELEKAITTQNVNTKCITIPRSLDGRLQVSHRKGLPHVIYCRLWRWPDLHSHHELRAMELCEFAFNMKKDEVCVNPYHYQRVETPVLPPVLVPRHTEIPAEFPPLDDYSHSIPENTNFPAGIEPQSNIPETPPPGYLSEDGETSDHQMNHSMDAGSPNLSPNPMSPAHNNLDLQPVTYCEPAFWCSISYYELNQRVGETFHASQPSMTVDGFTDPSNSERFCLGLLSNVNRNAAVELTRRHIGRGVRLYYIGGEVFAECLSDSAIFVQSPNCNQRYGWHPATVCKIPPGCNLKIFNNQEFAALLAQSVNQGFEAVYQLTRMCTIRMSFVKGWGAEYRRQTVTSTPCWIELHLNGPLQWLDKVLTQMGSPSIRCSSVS
# Candida biofilm = clotrimazole potentiators killing Candida biofilms, primary screen, with clotrimazole, Alamar Blue | C. albicans biofilm + clotrimazole | inhibition, % at 6 µM | hit rate 0.14% among 85,000 | AID 834, 2007;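 active = inhibition above 20%; inactive = inhibition below 20%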;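 also: preformed 24 hr biofilms exposed to compound for 48 hr; 0% = biofilm without compound and 100% = blank killed by clotrimazole plus chlorhexidine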
# HUVEC tox TNFa = cytotoxicity in TNFa-stimulated HUVEC, primary screen, cytotoxicity control for VCAM1 expression modulator project, imaging, Hoechst nuclei count; hit rate 0.17% among 93,000; HUVEC TNFalpha-stimulated, Hoechst cell count; cell count reduction, % at 2 µM;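 active = cell count reduction exceeding the screen mean by over 5 SD, scaled to untreated wells per plate, cut at about 78% in these data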;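 also: cells counted after 24 h of TNF alpha exposure following the 1 h pretreatment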
# F-actin modifier = modifiers of F-actin cytoskeleton organization, primary screen, imaging, HUVEC, phalloidin staining, high-content imaging | hit rate 0.18% among 91,000 | AID 836, 2007 | HUVEC TNFa F-actin phalloidin imaging | inhibition, % at 2 µM;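 active = inhibition above the batch mean plus 3 SD and confirmed as a hit by visual image inspection, cut at about 30% in these data, passing the limit was not always enough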; also: strong numbers were not always called active
# IL1B cytotox = cytotoxicity in IL-1B stimulated HUVEC, primary screen, cytotoxicity control for IL-1B NFkB translocation project, imaging, Hoechst nuclear count, IL-1B stimulus. HUVEC cell count loss. cell count reduction, % at 2 µM. hit rate 0.41% among 94,000. AID 845, 2007;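 active = cell count reduction more than 3 SD above the screen-wide mean, cut at about 70% in these data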;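 also: normalized per plate to untreated control cells as the no-loss baseline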
# ERb coact inh = inhibitors of ERβ-SRC1 coactivator interaction, primary screen, biochemical, TR-FRET, ERβ LBD, SRC-1 peptide | hit rate 1.3% among 86,000 | TR-FRET ER-beta LBD / SRC1-Cy5 peptide binding; receptor agonist-loaded with 1 µM estradiol | inhibition, % at 25.6 µM | Estrogen receptor beta (Homo sapiens), Q92731 | AID 633, 2007;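 active = compounds whose percent inhibition of the receptor-coactivator binding signal exceeds about 50% in the single-dose screen, limit read from the data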;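 also: 0% = receptor plus peptide wells without compound and 100% = peptide-only wells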
# Target sequence (Q92731 whole entry, looked up, the tested form may be a part): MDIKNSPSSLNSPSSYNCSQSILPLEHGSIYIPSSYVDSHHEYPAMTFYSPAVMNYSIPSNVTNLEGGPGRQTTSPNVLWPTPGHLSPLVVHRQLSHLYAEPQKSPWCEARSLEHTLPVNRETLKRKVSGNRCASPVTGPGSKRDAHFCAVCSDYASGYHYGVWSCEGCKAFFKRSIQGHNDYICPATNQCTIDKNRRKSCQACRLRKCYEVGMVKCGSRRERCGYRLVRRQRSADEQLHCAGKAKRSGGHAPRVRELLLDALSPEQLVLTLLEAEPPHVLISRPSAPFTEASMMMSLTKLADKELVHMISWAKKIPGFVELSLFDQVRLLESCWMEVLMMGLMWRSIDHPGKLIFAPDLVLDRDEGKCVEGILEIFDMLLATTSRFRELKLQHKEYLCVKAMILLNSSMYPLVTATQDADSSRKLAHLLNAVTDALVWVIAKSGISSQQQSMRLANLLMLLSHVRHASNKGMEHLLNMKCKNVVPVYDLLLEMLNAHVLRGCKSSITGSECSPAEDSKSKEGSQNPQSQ
# * marks the source's active call; other numbers are inactive results; x = not tested or not shown; [ ] = another dose, or the depositor's remark. These rows are one share of the data; the hit share may differ from the screen's.
SMILES,VCAM1 TNFa inh,Smad3 inh,Candida biofilm,HUVEC tox TNFa,F-actin modifier,IL1B cytotox,ERb coact inh
CCOc1ccccc1-c1nc(-c2ccc(NC(=O)c3ccc(Br)o3)cc2)no1,14,1,10,-2,3,-18,21
CCOC(=O)c1cc2nc(Nc3ccc(OC)cc3)sc2s1,-30,-4,4,-13,11,9,-18
Cc1cc(NC2C3CC4CC(C3)CC2C4)n2nnnc2n1 (stereo not given),-1,6,4,20,-9,-5,9[fluorescence artefact?]
CCCN1CCN(C(=O)CCCNC(=O)Cn2cnc3sc(C)c(C)c3c2=O)CC1,-10,x,x,-24,11,-4,x
CCn1c(=O)c2c3c(sc2n2cnnc12)CCC3,-11,2,3,-9,1,19,42
COc1ccccc1NC(=S)N1CCC(NC(=O)NC23CC4CC(CC(C4)C2)C3)CC1,13,x,x,3,-6,-4,x
O=C(C(c1ccccc1)N1CCOCC1)N1CCOCC1 (stereo not given),20,-9,10,-5,-17,-9,5
O=c1cc(NCc2ccco2)[nH]c(=O)n1-c1ccc(Br)cc1,23,5,-2,21,-6,-28,47[fluorescence artefact?]
COc1ccccc1-c1n[nH]c(=S)o1,-18,16[fluorescence artefact?],8,16,-10,5,-1
Cc1cnc(C)c(N2CCC(C(=O)NCc3cccs3)CC2)n1,13,8,3,-40,8,-24,0
O=C(O)c1cc(S(=O)(=O)O)ccc1O,10,0,3,-17,x,8,-2
CC(Sc1nc(-c2ccccc2)nc2c1COC(C)(C)C2)C(=O)N1CCOCC1 (stereo not given),6,12,6,0,-4,-18,-8
CCC(C)C(NC(=O)OC(C)(C)C)C(=O)NCc1ccco1 (stereo not given),8,-6,-5,-17,36,-2,1
CCCNC(=O)c1ccccc1NC(=O)COc1ccc(OC)cc1,12,-7,0,60,-10,20,8
Cc1ccc(N2C(=O)c3sc4nnc(C)c(=O)n4c3C2=O)cc1,1,0,0,-3,-24,0,-5

# Just ERb coact inh and Candida biofilm, for 5 of the compounds above:
SMILES	ERb coact inh	Candida biofilm
CCOC(=O)c1cc2nc(Nc3ccc(OC)cc3)sc2s1	-18	4
O=c1cc(NCc2ccco2)[nH]c(=O)n1-c1ccc(Br)cc1	47[fluorescence artefact?]	-2
CCOc1ccccc1-c1nc(-c2ccc(NC(=O)c3ccc(Br)o3)cc2)no1	21	10
COc1ccccc1-c1n[nH]c(=S)o1	-1	8
Cc1cc(NC2C3CC4CC(C3)CC2C4)n2nnnc2n1 (stereo not given)	9[fluorescence artefact?]	4

# The list continues.
SMILES,VCAM1 TNFa inh,Smad3 inh,Candida biofilm,HUVEC tox TNFa,F-actin modifier,IL1B cytotox,ERb coact inh
CC1C/C(=N/O)C(C)CN1 (stereo not given),-1,-10,-6,17,-13,-55,-14
C=CCSc1n[nH]c(-c2ccc(OC)cc2)n1,7,3,3,3,-1,3,-9
Cc1ccc([N+](=O)[O-])cc1-c1ccc2cccc(C)c2n1,-4,x,x,-18,22,5,x
C1CCC(n2nnnc2CN2CCN(C3CCCC3)CC2)CC1,16,1,6,-1,-14,0,0
CS(=O)(=O)N(Cc1ccco1)CC(O)Cn1cc(C=O)c2ccccc21 (stereo not given),9,4,4,0,-11,-17,-2
O=C(NCCCN1CCOCC1)c1ccc(CNS(=O)(=O)c2ccc(F)cc2)cc1,-11,9,4,-6,20,-8,-11
COc1ccc(OC)c(-n2c(-c3cccc(O)c3)n[nH]c2=S)c1,4,-13,5,-16,8,-10,3
CN(C)C(=O)N1CCCC(C(=O)NCc2ccccc2)C1 (stereo not given),x,-5,8,x,x,0,-3
CCN1CCN(C(=O)CS(=O)Cc2nc(-c3ccc(OC)cc3)oc2C)CC1 (stereo not given),6,2,7,-14,-1,-30,-9
COc1ccc(C(=O)Nc2cccnc2)cc1,-1,10,-2,6,-10,-2,-8
Cn1c(=O)c2c3c(sc2n2cnnc12)CCC3,17,-6,6,1,19,-2,7
O=C(CCSc1nc(-c2ccco2)cc(C(F)(F)F)n1)Nc1ccc2c(c1)OCO2,9,10,-6,9,-13,x,15[fluorescence artefact?]
Cc1ccc(S(=O)(=O)NCCNC(=O)C2CCCNC2=O)cc1 (stereo not given),8,1,3,-20,10,-16,-6[fluorescence artefact?]
CCN(CC(=O)Nc1ccc2c(c1)OCCO2)S(=O)(=O)c1ccc(C)cc1,-8,16,-6,3,-8,4,-7
O=C(NC1CCCCC1)N1CCCC(c2nc(-c3ccc(S(=O)(=O)N4CCCC4)cc3)no2)C1 (stereo not given),-10,10,4,-10,12,-6,0[fluorescence artefact?]
O=C(COc1ccccc1)NC(=S)Nc1ccc2c3c(cccc13)CC2,-24,16,3,2,-12,10,0
CC(C)Sc1nc2sc3c(c2c2nnc(SCC(=O)NCc4ccco4)n12)CCCC3,5,-7,9,8,-25,-24,33
O=C(O)c1ccc2c(c1)CC(c1ccccc1)OC2=O (stereo not given),x,4,7,x,x,17,5[fluorescence artefact?]
O=C(CN(c1ccc(Cl)cc1)S(=O)(=O)c1ccccc1)N1CCN(c2ccccc2)CC1,-3,3,5,-6,-3,-91,8
O=C(NCc1cccs1)C1CCCN(c2ncccn2)C1 (stereo not given),-14,-15,10,-3,-12,-10,13
COC(=O)c1cccc(NC(=O)NC2CCCN2S(=O)(=O)c2ccc(Cl)cc2)c1 (stereo not given),9,6,8,-39,12,-8,-2
CC(C)c1ccc(NC(=O)CN(Cc2ccccc2)S(C)(=O)=O)cc1,0,10,3,-17,14,-5,1
O=C(CSc1ccc2nnc(-c3cccnc3)n2n1)NCc1ccco1,7,-3,4,-5,2,11,4
CCc1ccc(N2C(=O)c3sc4nnc(C)c(=O)n4c3C2=O)cc1,-2,6,4,-29,-10,5,3
CCSC1=C(C#N)C(c2ccc(Cl)cc2)C2=C(CCCC2=O)N1 (stereo not given),-2,1,3,-16,3,38,13
C=CCn1c(COc2ccccc2)nnc1SCC(=O)Nc1ccc(S(N)(=O)=O)cc1,24,-2[fluorescence artefact?],4,-35,7,-1,-1
O=C(C1CCCCN1S(=O)(=O)c1ccccc1)N1CCN(C(c2ccccc2)c2ccccc2)CC1 (stereo not given),-3,2,-1,-13,13,-17,7
CCOC(=O)C1=C(CC)Nc2ccccc2N=C1NC(=O)c1cc(S(=O)(=O)N(C)C)ccc1Cl,3,5,7,-24,-11,0,-9
Cc1ccc2nc3c(nc2c1)-c1ccccc1C3=O,13,6,5,2,-17,-38,1[fluorescence artefact?]
COc1ccccc1NC(=O)CSc1nccc(=O)[nH]1,8,-2,x,3,14,-2,-5
CCn1c(COc2cccc(C)c2)nnc1SCC(=O)Nc1cccc(C(=O)O)c1,2,12,3,-17,-9,32,-14[fluorescence artefact?]
CCOc1ccc(N(CC(=O)N2CCN(c3ccccc3)CC2)S(=O)(=O)c2c(C)noc2C)cc1,-4,5,-2,7,-12,0,-18
CCC(=O)N1C(=O)CCN(C(C)=O)c2ccccc21,x,-2,4,x,x,-14,3
Cc1cccc(C(=O)NC2CCN(C(=S)NCc3ccco3)CC2)c1,-4,x,x,-3,-26,-15,x
COc1ccc(/C(O)=C2/C(=O)C(=O)N(CCCC(=O)O)C2c2ccc(OC)c(OC)c2)cc1 (stereo not given),-2,5,9,-17,5,-2,2[fluorescence artefact?]
CC(=O)/C(C(=N)N1CCN(c2cccc(Cl)c2)CC1)=C(\C)O,-2,11,-3,20,-9,-1,-10
CC(Oc1ccc(-c2ccccc2)c(F)c1)c1ccn(S(=O)(=O)c2ccc(Cl)cc2)n1 (stereo not given),-3,x,x,3,-18,18,x
CC(=O)Cc1nsc(NC(=O)c2cc(-c3ccccc3Cl)oc2C)n1,9,9,5,2,14,5,1
N=c1c2c(-c3ccccc3)c(-c3ccccc3)n(Cc3ccccc3)c2ncn1CCCO,4,8,3,-9,-4,-2,-3
Cc1cccc(N2CC(C(=O)OCC(=O)c3ccc(OC(=O)c4cccs4)cc3)CC2=O)c1C (stereo not given),-12,x,x,-20,7,9,x
Cc1noc(C)c1S(=O)(=O)N(CC(=O)N1CCCCCC1)c1ccc(C(C)C)cc1,6,-14,11,14,-10,26,-3
O=C(NC1(C(F)(F)F)C(=O)Nc2c1c(=O)[nH]c(=O)n2-c1ccccc1)c1cccnc1 (stereo not given),9,8,4,-5,11,-73,-10
O=C(NCc1ccccc1Cl)C1CCN(S(=O)(=O)N2CCCCCC2)CC1,-2,1,9,-20,1,-18,-8
COc1cccc(C(=O)Nc2cccc(OC(C)=O)c2)c1,-3,-9,10,-8,20,-70,5
O=C(Nc1ccccc1-c1ccccc1)C1CCCN(c2ncccn2)C1 (stereo not given),-4,5,7,16,11,18,-1
c1cncc(C2Nc3ccccc3-c3nc4ccccc4n32)c1 (stereo not given),6,3,6,-6,9,7,1
COc1nc(OC)nc(N2CCC(C(=O)NC3CCCCCC3)CC2)n1,-11,6,10,0,12,16,3[fluorescence artefact?]
COC(=O)c1ccccc1NC(=O)COc1ccc(S(=O)(=O)N2CCCC2)cc1C,-20,0,3,x,7,-25,-8[fluorescence artefact?]

# Part of the list above in order of number of heavy atoms, descending:
SMILES,VCAM1 TNFa inh,Smad3 inh,Candida biofilm,HUVEC tox TNFa,F-actin modifier,IL1B cytotox,ERb coact inh
CC(Oc1ccc(-c2ccccc2)c(F)c1)c1ccn(S(=O)(=O)c2ccc(Cl)cc2)n1 (stereo not given),-3,x,x,3,-18,18,x
Cc1noc(C)c1S(=O)(=O)N(CC(=O)N1CCCCCC1)c1ccc(C(C)C)cc1,6,-14,11,14,-10,26,-3
CC(=O)Cc1nsc(NC(=O)c2cc(-c3ccccc3Cl)oc2C)n1,9,9,5,2,14,5,1
COc1cccc(C(=O)Nc2cccc(OC(C)=O)c2)c1,-3,-9,10,-8,20,-70,5

# Screens (PubChem BioAssay)
